# Screening data as filed in PubChem BioAssay.
# eIF4H inh: inhibitors of RNA binding by human eIF4H. Q15056. eIF4H fluorescence polarization binding assay. inhibition, % at 35 µM. 0.94% of 290,000 active. AID 2012;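 active = 50% or more with normal probe brightness, or confirmed in later tests; inconclusive = above 50% with abnormal brightness, or retests that disagree; inactive = below 50% or failed in later tests; about a fifth of its hits are not listed in these tables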;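 note: calls also rest on retests at 20 µM and on dose response follow-up; 0% = protein and probe with vehicle and 100% = probe without protein; strong numbers were not always called active; many hits fall short of the cut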
# UUG fidelity: alters start codon recognition fidelity in yeast. S. cerevisiae UUG-firefly luciferase reporter, luminescence/redox ratio. activity score, % at 18.7 µM. 0.13% of 350,000 active;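 active = replicate mean at a twofold rise or more, about +100% in these data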;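 note: firefly luciferase made from a UUG start codon reports start codon fidelity; reporter light over untreated wells divided by growth signal over untreated wells; some hits fall short of that in this replicate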
# CSC inhib: cancer stem cell inhibition | cancer stem cell-like cells viability, luminescence | inhibition, % at 7.5 µM | 1.1% of 300,000 active;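 active = mean at 75% or more and at least half the replicates too; inconclusive = mean and replicates disagree; tested in HMLE shEcad cells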;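 note: 0% = median of negative and 100% = median of positive control wells; the first replicate is given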
# PABP polyA inh: PABP-poly(A) binding inhibition | P11940 | AID 2014 | inhibition, % at 35 µM | PABP-poly(A) RNA binding, fluorescence polarization | 1% of 290,000 active;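 active = 50% or more with normal probe brightness, or confirmed in later tests; inconclusive = above 50% with abnormal brightness, or retests that disagree; inactive = below 50% or failed in later tests; about a fifth of its hits are not listed in these tables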;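 note: calls also rest on retests at 20 µM and on dose response follow-up; controls were probe without protein and protein plus probe with vehicle; some compounds called inactive have numbers as strong as hits; many hits fall short of the cut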
# Target sequence (P11940 whole entry, looked up): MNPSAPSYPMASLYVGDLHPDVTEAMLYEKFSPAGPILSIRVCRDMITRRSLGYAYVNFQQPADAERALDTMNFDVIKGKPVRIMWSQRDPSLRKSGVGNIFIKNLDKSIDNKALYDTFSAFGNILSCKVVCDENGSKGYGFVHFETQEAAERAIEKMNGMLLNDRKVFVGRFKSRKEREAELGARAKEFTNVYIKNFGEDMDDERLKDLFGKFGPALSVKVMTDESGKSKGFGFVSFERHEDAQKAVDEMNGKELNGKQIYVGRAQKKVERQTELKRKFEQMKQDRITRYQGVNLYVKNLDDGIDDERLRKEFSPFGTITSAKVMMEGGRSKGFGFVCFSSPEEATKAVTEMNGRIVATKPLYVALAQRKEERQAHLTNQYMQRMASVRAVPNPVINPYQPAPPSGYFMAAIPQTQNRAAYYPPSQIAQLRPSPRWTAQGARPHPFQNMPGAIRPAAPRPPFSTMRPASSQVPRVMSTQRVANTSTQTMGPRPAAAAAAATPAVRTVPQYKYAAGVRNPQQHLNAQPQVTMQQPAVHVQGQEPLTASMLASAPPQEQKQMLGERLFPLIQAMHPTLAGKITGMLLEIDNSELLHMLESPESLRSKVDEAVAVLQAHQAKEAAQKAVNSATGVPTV
# MT1-MMP act inh: inhibitors of human MT1-MMP activation; 0.061% of 360,000 active; AID 651647; GFP/RFP ratio change, % at 20 µM; P50281; HT1080 RFP-PRO-GFP cells, GFP/RFP ratio fluorescence, overnight; percent of plate control window, DMSO zero;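 active = GFP/RFP ratio change of at least 30% with cell ATP level not reduced by more than half and red fluorescence within 50% of control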; note: strong numbers were not always called active
#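 Assay system: HT1080 RFP-PRO-GFP cells | Dosing: 20 µM single dose, 1% DMSO | Incubation: Cells overnight before dosing, compound overnight, 37 °C, 5% CO2 | Evaluation: GFP/RFP fluorescence ratio | Control set: DMSO-only wells and HT1080 RFP-L50D-GFP cell wells as references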
# HIV Env fusion: blocks HIV Env-driven cell-cell fusion; inhibition, % at 12.3 µM; HeLa-JRFL Env/CEM21 cell fusion, luciferase; 1.1% of 360,000 active;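 active = mean replicate inhibition score of at least 50 and every replicate individually at or above 50; inconclusive = only one of the two criteria met; inactive = mean below 50 and not all replicates reaching 50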;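 note: 0% = plate neutral controls and 100% = maraviroc near 300 nM; one replicate is shown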
# Rce1 inh: blocks yeast Ras-converting enzyme. yeast membranes, quenched prenylated peptide cleavage fluorescence. calls only. 0.27% of 290,000 active. AID 2563;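 active = fall in fluorescence gain of 50% or more versus controls, with final raw signal at or below 3038400; inconclusive = same 50% fall but final raw signal above 3038400; inactive = fall in fluorescence gain under 50%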;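 note: plate controls were neutral control wells for no effect and wells lacking membranes for full effect; tested at 10 µM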
# Target sequence (Q03530 whole entry, looked up): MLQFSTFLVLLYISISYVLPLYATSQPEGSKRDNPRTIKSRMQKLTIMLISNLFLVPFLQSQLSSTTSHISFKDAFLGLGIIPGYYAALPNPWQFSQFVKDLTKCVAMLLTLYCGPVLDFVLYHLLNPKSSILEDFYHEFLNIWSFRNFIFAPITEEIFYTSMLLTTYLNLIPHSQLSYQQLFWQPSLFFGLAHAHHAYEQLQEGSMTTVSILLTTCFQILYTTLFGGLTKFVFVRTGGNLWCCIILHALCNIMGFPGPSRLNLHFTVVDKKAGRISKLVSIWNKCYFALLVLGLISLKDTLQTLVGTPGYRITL
# MT1-MMP act inh RFP: also measured in MT1-MMP act inh; calls as there; RFP signal change, %; measured here: RFP expression control read;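 0 = vehicle wells; hits needed this value within 50% of zero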
# * hit, by the source's call; i = inactive; ? = inconclusive; / = no result given; + = active, no number.
# Results follow in this order: HIV Env fusion	Rce1 inh	MT1-MMP act inh	PABP polyA inh	eIF4H inh	UUG fidelity	MT1-MMP act inh RFP	CSC inhib
> CCC(C)NC(=O)CS(=O)Cc1nc(-c2ccccc2C)oc1C (centres undefined)
→ -33	i	-2	5	-12	-13	4	-8
> C[C@H](NC(=O)CC[C@H]1O[C@@H](n2ccc(=O)[nH]c2=O)[C@H](O)[C@@H]1O)C(=O)O
→ -19	/	-3	/	/	-20	1	/
> CNC(=O)/C(=C\c1ccc([N+](=O)[O-])cc1)NC(C)=O
→ /	i	3	-1	-3	/	8	-4
> Cc1ccc2c(c1)N(CCC(=O)NCCN1CCOCC1)C(=O)CO2
→ -38	i	2	-6	-14	-11	-1	-9
> CCOC(=O)/C=C1\CC(C(=O)OCC)Oc2ccccc21 (centres undefined)
→ -22	/	1	/	/	-4	0	/
> Cc1ccccc1NS(=O)(=O)c1ccc(C(=O)N2CCN(c3ccccn3)CC2)cc1
→ 14	i	6	18	0	/	-5	8
> Cc1cc2c(ncn2C)c(NS(=O)(=O)c2ccc(Cl)cc2)c1C
→ -1	i	-1	3	12	-34	-1	-20
> CCOC(=O)c1sc(NC(=O)C(CC)Sc2nc3ccccc3[nH]2)nc1C (centres undefined)
→ /	i	-3	/	/	/	-1	-5
> Cc1ccc(C(=O)O)cc1-c1ccc(C=C2C(=O)c3ccccc3C2=O)o1
→ 25	i	-2	13	28	/	3	4
> Fc1ccc(-c2nnn(Cc3ccccc3Cl)n2)cc1
→ -16	i	2	-6	-6	-21	-2	6
> NNC(=O)C1CC1c1ccccc1 (centres undefined)
→ -4	i	5	-2	5	-21	9	/
> CN(C)CCCN(C(=O)COc1ccccc1)c1nc2ccc(F)cc2s1
→ -6	i	-2	-5	4	/	0	-11
> Cn1c(N)c(C(=O)COC(=O)/C=C/c2cccc(F)c2)c(=O)n(C)c1=O
→ -1	/	2	/	/	4	1	/
> COc1ccccc1CNc1ncnc2cc(Cl)ccc12
→ 12	i	-1	-8	-8	/	-17	/
> CCOc1ccc(CCNC(=O)c2ccc3c(=O)[nH]c4c(C(=O)NC(C)C)sc(=S)n4c3c2)cc1
→ 7	i	4	30	11	-3	-6	55
> O=C(c1ccccc1O)N1N=C(c2ccccc2)CC1(O)C(F)(F)F (centres undefined)
→ 49	i	3	-8	-4	/	0	47
> O=C(NC1CCCCCCC1)C1=COCCO1
→ /	i	3	-6	8	-4	5	14
> CCCC(=O)Nc1cc(OC)c(NC(=S)Nc2ccc(CC)cc2)cc1OC
→ 3	/	3	/	/	-17	2	/
> C[C@]12C=C[C@H](O)CC1=CCC1C2CC[C@@]2(C)C1CCC21OCCO1 (some centres undefined)
→ 6	/	7	/	/	13	-4	-3
> CCCc1cc(=O)[nH]c(SCC(N)=O)n1
→ /	/	2	4	-6	-7	0	-17
> CCc1ccc(NC(=O)C2C3C=CC(C4CC34)C2C(=O)O)cc1 (centres undefined)
→ /	i	-1	-12	-10	-20	0	2
> Cc1c(C(=O)NCCSCc2ccco2)cccc1[N+](=O)[O-]
→ 1	i	2	-7	-10	-15	1	-10
> O=C(NCC1COc2ccccc2O1)c1cc(S(=O)(=O)N2CCOCC2)ccc1F (centres undefined)
→ 0	/	-4	/	/	-3	0	/
> COc1cc(C(=O)NCCN2CCOCC2)cc(OC)c1OC
→ /	i	5	-3	-4	-5	4	-9
> COc1ccc2c(n1)Sc1nc3ccccc3nc1N2
→ -159	i	-74	?	?	18	0	53
> COc1ccc(NC(=O)Nc2cccc(Cl)c2Cl)c(OC)n1
→ 1	i	1	-4	0	-10	-1	21
> CCOC(=O)C1CCN(Cc2cc(=O)oc3cc(C)ccc23)CC1
→ 3	i	4	6	5	-15	3	-9
> COc1cc(OC)cc(-c2cc3cc4c(cc3cn2)OCO4)c1
→ /	/	18	/	/	-9	-2	66
> C=CCn1c(SCC(=O)c2ccc(OC)cc2)nnc1-c1cc2cccc(OC)c2o1
→ /	i	1	-12	-9	2	-1	-10
> CCN(C(=O)c1cc(S(=O)(=O)N2CCOCC2)cn1C)c1cccc(C)c1
→ -78	i	2	5	-12	-14	6	5
> COc1cccc(C2=CC(c3ccc(OC)c(OC)c3OC)n3nnnc3N2)c1 (centres undefined)
→ /	i	1	-2	-8	2	0	-23
> Cc1cccc(CN2CCC(CNC(=O)CCNC(=O)Cn3ccc4ccccc4c3=O)CC2)c1
→ -8	i	-1	-4	-8	0	-1	10
> S=c1[nH]nc(COc2ccc(Cl)cc2)n1-c1ccccc1
→ -3	i	-5	1	-3	-17	-2	-11
> O=C(C1=C(O)C(=O)N(Cc2ccco2)C1c1cccc(O)c1)c1ccco1 (centres undefined)
→ -4	i	2	15	-9	-24	1	-3
> Cc1ccc2nc(Cl)c(C3CC(c4cccs4)=NN3C(=O)CCCC(=O)O)cc2c1 (centres undefined)
→ 9	+	5	-3	-1	/	3	-19
> CC(=O)c1ccc(N/N=C(/C(N)=O)C2=NC(C)(C)Cc3ccccc32)cc1
→ 15	i	2	-9	-1	-5	-7	42
> Cc1ccc(C(=O)COC(=O)CNS(=O)(=O)c2ccc(C)cc2)cc1
→ /	i	0	-5	-14	-4	1	0
> COC(=O)[C@@H](CC(C)C)N(Cc1ccccc1)S(=O)(=O)N(Cc1ccccc1)[C@@H](CC(C)C)C(=O)OC
→ 85*	/	4	/	/	42	-5	27
> O=C(/C=C/c1cc(Br)ccc1O)c1ccco1
→ -32	i	-17	-4	0	-13	-19	?
> COc1cccc(C(=O)NCCCNC(=O)c2ccccn2)c1
→ -8	i	0	2	6	-22	3	1
> COc1ccc(C2=Nn3c(nnc3-c3ccccc3Cl)SC2)cc1OC1CCCC1
→ -19	/	8	/	/	-16	-11	/
> COc1cccc(NC(=O)CSCc2n[nH]c(=O)[nH]2)c1
→ /	i	-2	-4	1	10	1	1
> CC(=O)N1CCc2cc(S(=O)(=O)NC(CC(C)C)C(=O)N3CCCC3)ccc21 (centres undefined)
→ -6	i	0	10	2	-17	5	-23
> Cc1cccc2cc(C#N)c(NCCNC(=O)NC3CCCCC3)nc12
→ 9	i	0	3	-9	-24	1	-3
> Nc1c(C(=O)Nn2cnnc2)cc([N+](=O)[O-])cc1[N+](=O)[O-]
→ /	i	/	0	-3	/	/	-3
> COc1ccccc1N(CC(O)CN1C(C)CCCC1C)S(=O)(=O)c1ccccc1 (centres undefined)
→ 7	i	-4	-8	2	-14	1	-6
> CN(C)S(=O)(=O)N(CC(=O)N1CCOCC1)c1ccccc1
→ /	i	1	-2	-5	-11	4	-9
> COc1ccc(-n2nnnc2SCC(=O)Nc2nnc(C)s2)cc1
→ 0	i	6	-7	-7	1	4	-16
> Cc1ccc(S(=O)(=O)N2CCN(C(=O)C3CCCC3)CC2)cc1C
→ -16	i	2	2	4	/	-3	-8
> CCN(CC)C(=O)CSc1nc2ccccc2c(=O)n1CCC(=O)N1CCN(c2ccccc2)CC1
→ -1	i	2	1	3	/	2	-2
> COc1ccc(NS(=O)(=O)c2cc(NC(=O)c3ccco3)ccc2N2CCCC2)cc1
→ -10	i	0	-5	-5	12	0	-7
> CCN(CC)S(=O)(=O)c1cccc(C(=O)OCC(=O)N2CC(=O)Nc3ccccc32)c1
→ -26	i	-1	-10	-8	-14	0	-3
> CC(=O)Nc1ccc(S(=O)(=O)NCCC(=O)N2CCC(Cc3ccccc3)CC2)cc1
→ 14	/	11	/	/	0	-6	/
> CCOc1ccc(NC(=O)CN(C)C(=O)c2cc([N+](=O)[O-])ccc2N2CCCCC2)cc1OCC
→ -28	i	3	/	/	-9	-2	16
> Cc1ccccc1Cn1cc(NC(=O)c2cc3nc(-c4ccco4)cc(C(F)(F)F)n3n2)cn1
→ /	i	-7	-1	-11	-13	-6	-7
> Clc1cccc(CSc2ccc(-c3ccco3)nn2)c1
→ 14	i	2	-3	48	/	2	9
> CCCc1cc(-c2nc(N)ncc2-c2ccc3c(c2)OCCCO3)c(O)cc1OC
→ /	i	-10	-2	-7	-11	-8	173*
> N#Cc1ccc(C(=O)Nc2nnc(-c3ccccn3)o2)cc1
→ -10	i	2	9	-5	-14	5	-3
> Cc1ccccc1C(=O)Nc1nnc(-c2ccco2)o1
→ 5	i	7	-3	-6	/	3	-3
> CCOc1cc(C(=O)OCC(=O)Nc2c(C)cccc2C)ccc1OCC(=O)N1CCOCC1
→ -18	i	0	-7	-9	/	3	2

# Next part:
# Results follow in this order: HIV Env fusion	Rce1 inh	MT1-MMP act inh	PABP polyA inh	eIF4H inh	UUG fidelity	MT1-MMP act inh RFP	CSC inhib
> COC(=O)[C@]1(C)N[C@H](CN(C)C(=O)Nc2ccc(OC)cc2)[C@@H]2C(=O)N(C)C(=O)[C@@H]21
→ 9	/	2	/	/	-13	6	/
> Cc1c(C(=O)OC(C)C(C)C[N+](C)(C)C)oc2ccccc12 (centres undefined)
→ /	i	2	38	6	-12	3	24
> O=C(O)CSc1nc2ccccc2c(=O)[nH]1
→ /	i	0	10	1	1	3	-2
> Cc1cccc(C)c1Nc1c(-c2ccc(N3CCOCC3)cc2)nc2cnccn12
→ 0	i	0	10	-1	-7	-2	24
> O=C(CC1SC(=O)N(c2ccccc2)C1=O)Nc1ccc(Cl)cc1 (centres undefined)
→ 0	i	3	2	-4	/	7	2
> COC(=O)c1cc(NS(=O)(=O)c2ccc(N3CCCCC3)c([N+](=O)[O-])c2)cc(C(=O)OC)c1
→ /	i	-1	8	1	/	-1	-3
> O=C(COC(=O)c1ccc(=O)[nH]c1)Nc1cccc(S(=O)(=O)N2CCOCC2)c1
→ 22	/	-1	-4	-11	-29	3	-8
> CCS(=O)(=O)N1CCN(Cc2ccncc2)CC1
→ -20	/	1	27	4	7	2	1
> CCOC(=O)c1c(NC(=O)C2C3CCC(O3)C2C(=O)O)sc2c1CCC(CC)C2 (centres undefined)
→ 7	i	5	16	8	-13	0	13
> Cc1ccc(C2(C)NC(=O)N(CC(=O)Nc3ccccc3N3CCCC3)C2=O)cc1 (centres undefined)
→ /	i	3	/	/	-8	3	-6
> CC1CCCC(NC(=O)CN2CCN(S(=O)(=O)c3cccs3)CC2)C1C (centres undefined)
→ 7	/	-2	/	/	8	1	/
> CC(=O)c1c(C)[nH]c(C(=O)Nc2nc(-c3ccc(Cl)cc3)cs2)c1C
→ -9	i	-43	6	-2	/	-33	55
> COc1ccc(NS(=O)(=O)c2cc(NC(=O)/C=C/c3ccccc3OC)ccc2N2CCCCC2)cc1
→ 18	i	-1	6	35	/	-4	/
> O=C(CSc1nnc(-c2cccs2)o1)NCC1CN(Cc2ccccc2)CCO1 (centres undefined)
→ -33	i	4	-4	8	20	-1	-9
> O=C1[C@H](Cc2ccccc2)NCCCC[C@@H](c2ccc(Cl)cc2)N1Cc1ccccc1
→ 19	/	-5	/	/	11	-6	/
> COC(=O)c1c(NC(=O)C(C)(C)C)sc2c1C(C(=O)OC)CC2 (centres undefined)
→ i	i	3	-1	-2	-11	-2	-12
> CN(C)CCN1CCN(c2cc(-c3cccc(Cl)c3)nc3ccnn23)CC1
→ -10	/	0	/	/	-10	5	/
> CC[C@@H]1C/C=C\Cc2ccccc2[C@@H](C(=O)C[C@@H](O)CC(C)=O)OC1=O
→ 10	/	-3	/	/	-5	0	/
> O=C(NCc1ccccc1)c1ccc(S(=O)(=O)NCc2ccco2)cc1
→ 4	/	1	-1	-9	-15	2	-11
> CC(=O)Nc1ccc(NC(=O)CSc2nnc3ccc(-c4ccccn4)nn23)cc1
→ -4	i	2	/	/	/	-4	-12

# These rows are one share of the data; rates above refer to the full screens.
